LASV entry inh: inhibitors of Lassa virus binding or cell entry. Lassa virus pseudotype entry inhibition, cell reporter; control for the full effect not named in the record. Potency, µM (doses to about 37.9 µM), inactives show top-dose activity change, negative = inhibition, most hits filed as inhibitors. 300,000 compounds, 1.2% hits. AID 540256; active means well fitted inhibition curve with a large enough effect; inconclusive means small, poorly fitted or top-dose-only effect, or effect the other way; inactive means flat fitted curve, though single readings scatter; tested in HEK293 cells; further: on the % scale 0 is the no-effect control and ±100 the full control effect; nearly all actives have a fitted effect of over 50% in size; luciferase read-out
Cruzain inh noDet: inhibitors of Trypanosoma cruzi cruzain without detergent. Potency, µM, for the others: max response, negative = inhibition, usual class: inhibitors. purified cruzain, Z-FR-AMC fluorescence, no detergent. P25779. 200,000 compounds, 2.3% hits. AID 1476; active means well fitted curve in the direction sought with a large enough effect; inconclusive means small, poorly fitted or top-dose-only effect, or another doubt; inactive means no such curve, though single readings can be large; an effect the other way counts as inactive or inconclusive;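 further: plate controls were enzyme without inhibitor for no effect and buffer without enzyme for full effect; nearly all actives have a fitted effect of over 40% in size; top concentration of the series not given in the record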
Target sequence (P25779 123-467 limits assumed): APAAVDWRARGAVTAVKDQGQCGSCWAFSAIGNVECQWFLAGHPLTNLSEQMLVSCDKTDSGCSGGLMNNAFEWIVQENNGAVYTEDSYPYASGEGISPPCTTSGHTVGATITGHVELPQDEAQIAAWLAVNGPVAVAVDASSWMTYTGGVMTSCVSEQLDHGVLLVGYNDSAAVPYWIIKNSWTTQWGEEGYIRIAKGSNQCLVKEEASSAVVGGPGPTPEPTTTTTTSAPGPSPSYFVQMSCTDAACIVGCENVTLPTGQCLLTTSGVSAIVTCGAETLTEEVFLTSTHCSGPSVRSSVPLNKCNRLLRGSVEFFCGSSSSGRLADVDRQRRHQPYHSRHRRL
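Detergent-free condition (0.00005% Triton X-100) in acetate buffer pH 5.5 with DTT. 1.5 nM enzyme and compound were pre-mixed 15 min, then 2 uM Z-FR-AMC substrate added; reaction progress from fluorescence change between first and third reads (60 s).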
SARS PLpro yeast: blocks SARS-CoV papain-like protease in a yeast assay | 330,000 compounds, 0.19% hits | S. cerevisiae expressing SARS-CoV PLpro, growth rescue; control for the full effect not named in the record | Potency, µM (top dose mostly 32.9 µM), for the others: top-dose activity, positive = growth rescue; further: 0% is about no effect; nearly all actives have a fitted effect of over 55% in size; growth read by luminescence after 48 h
NS1 inh: inhibitors of influenza NS1 protein function. S. cerevisiae slowed by influenza A NS1, growth recovery by OD600. Potency, µM (top dose mostly 46.1 µM), without a hit: top-dose activity, positive = more growth. 270,000 compounds, 0.4% hits. AID 2326; further: actives are rising curves; nearly all actives have a fitted effect of over 50% in size
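Compounds were scored for reversing the slow growth caused by influenza A NS1 in S. cerevisiae, measured by optical density at 600 nm. Assay medium contained 2% galactose at pH 6.0; NS1-free yeast of the same strain were the positive control.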
RE007 growth inh: less growth of the S. pombe RE007 Vpr strain; S. pombe RE007 Vpr strain, BacTiter-Glo ATP luminescence, 24 h; control for the full effect not named in the record; AID 651644; Potency, µM (doses to about 92.2 µM), for inactives: at the top dose activity change, negative = less growth; 360,000 compounds, 0.21% hits; active = well fitted falling curve with a large enough effect; inconclusive = small, poorly fitted or top-dose-only effect; inactive = no such curve, though single readings can be large or run the other way;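 further: on the % scale 0 is the no-effect control and ±100 the full control effect; nearly all actives have a fitted effect of over 50% in size; the assay follows cell death caused by Vpr and the record does not say whether a fall means rescue or toxicity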
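Fission yeast strain RE007, carrying one chromosomally integrated HIV-1 vpr copy, was seeded at OD 0.01 in PMG+AL medium with 23 nL pinned compound. After 24 h at 30 °C and 99% humidity, viability was read by BacTiter-Glo luminescence.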
StopGo reporter: FMDV 2A StopGo reporter, luciferase signal. human cells with a luciferase reporter of 2A StopGo recoding; control for the full effect not named in the record. Potency, µM (highest dose often 57.9 µM), without a hit: top-dose signal change, negative = less light. 410,000 compounds, 1.2% hits. AID 1159524; active = well fitted falling curve with a large enough effect; inconclusive = small, poorly fitted or top-dose-only effect; inactive = no such curve, though single readings can be large or run the other way; tested in HEK293T cells; further: on the % scale 0 is the no-effect control and ±100 the full control effect; nearly all actives have a fitted effect of over 45% in size; luciferase light after 4 h
Marburg entry inh: Marburg virus entry inhibition; Marburg virus pseudotyped entry inhibition, cell reporter; control for the full effect not named in the record; about a third of the inactives were read at about 46 µM; Potency, µM (highest dose often 37.8 µM), without a hit: at the highest dose activity change, negative = inhibition, usual class: inhibitors; 300,000 compounds, 1.8% hits; active = well fitted inhibition curve with a large enough effect; inconclusive = small, poorly fitted or top-dose-only effect, or effect the other way; inactive = flat fitted curve, though single readings scatter; tested in HEK293 cells; about a fifth of its hits are not listed in these tables; further: on the % scale 0 is the no-effect control and ±100 the full control effect; luciferase read-out
Cruzain inh Det: cruzain (T. cruzi) inhibition with detergent; Potency, µM, for inactives: max response, negative = inhibition, most hits filed as inhibitors; P25779; 200,000 compounds, 0.43% hits; purified cruzain, Z-FR-AMC fluorescence, 0.01% Triton; active means well fitted curve in the direction sought with a large enough effect; inconclusive means small, poorly fitted or top-dose-only effect, or another doubt; inactive means no such curve, though single readings can be large; an effect the other way counts as inactive or inconclusive;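 further: plate controls were neutral wells for no effect and buffer without enzyme for full effect; nearly all actives have a fitted effect of over 40% in size; top concentration of the series not given in the record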
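Enzyme 1.5 nM, Z-FR-AMC 2 uM, NaOAc 100 mM pH 5.5, DTT 5 mM, Triton X-100 0.01%; 15 min RT compound preincubation; kinetic ex360/em450, 60 s delta.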
Starred values were filed as active, the others as inactive; ? = inconclusive; nt = not tested or not shown; & = joins results of further samples; [ ] = remark or other dose. Unless noted, the call rests on the fitted dose curve; in most records, active means well fitted rising curve with a large enough effect; inconclusive means small, poorly fitted or top-dose-only effect; inactive means no such curve, though single readings can be large or run the other way. Potency means the concentration at half of the fitted maximal effect.

SMILES | LASV entry inh | Cruzain inh noDet | SARS PLpro yeast | NS1 inh | RE007 growth inh | StopGo reporter | Marburg entry inh | Cruzain inh Det
O=C(Nc1cccc(S(=O)(=O)N2CCCCC2)c1)c1cccs1 | ? | nt | 10% | -8% | 12% | -22% | 6% | nt
Nn1c(SCC(=O)Nc2ccc3c(c2)OCCO3)nnc1-c1cccnc1 | 2% | nt | -3% | -7% | 29% | -12% | 28% | nt
O=C(CC12CC3CC(CC(C3)C1)C2)NCC(=O)N1CCCC1 | 6% | -1% | 0% | 2% | 6% | -3% | -19% | 6.6%
CC(=O)N1CCN(C(=S)Nc2ccc(SC(F)F)cc2)CC1 | nt | nt | -1% | nt | -5% | 81%[activator] | 5%[46.1 µM] | nt
CCOC(=O)c1sc2nc(N3CCOCC3)c3c(c2c1N)CC(C)(C)N(C)C3 | 0% | 5% | 8% | -18% | -9% | -9% | 25% | -1.4%
Nc1ncc(S(=O)(=O)N2CCN(c3ccccc3)CC2)cn1 | 1%[46.1 µM] | 6% | nt | nt | nt | -1% | nt | 5.5%
Cc1cccc(C)c1NC(=O)COn1nnc2ccc(C(F)(F)F)cc21 | -8% | 10% | 2% | 14% | 3% | -8% | ? | -5.5%
O=S(=O)(c1cc(Cl)sc1Cl)N1CCCC1 | nt | nt | -1% | 1% | -1% | 4% | nt | nt
Cc1ccccc1CCNC(=O)C1CC(O)CN1C(=O)Nc1ccccc1 (centres undefined) | -15%[46.1 µM] | nt | 3% | 2% | -14% | -10% | -2%[46.1 µM] | nt
Cc1nc2ccccc2nc(C)c1=NOCc1cccc(Cl)c1 | nt | nt | -2% | 0% | -3% | -23% | nt | nt
CCOC(=O)/C=c1\s/c(=C\c2c(OCC)ccc3ccccc23)c(=O)n1CC(=O)NCC1CCCO1 (centres undefined) | ? | ? | -4% | 13% | -10% | -23% | ? | -8.9%
CCOc1ccc(-c2c(=O)n(OCc3nc4ccccc4[nH]3)c3ccccc3[n+]2[O-])cc1 | ? | nt | -1% | 4% | -4% | 11% | -3%[46.1 µM] | nt
COc1ccc(CN2CCn3ncc(C(=O)Nc4ccccc4)c3C2=O)cc1 | 0% | -16% | 0% | 12% | 9% | 31%[activator] | ? | -6.8%
CCN1CCCC1CNS(=O)(=O)c1ccc(Br)cc1 (centres undefined) | nt | nt | 0% | 6% | -3% | -17% | nt | nt
CCc1ccc(N2CC(C(=O)Nc3nc4ccc(S(C)(=O)=O)cc4s3)CC2=O)cc1 (centres undefined) | 8%[46.1 µM] | nt | -2% | 12% | 3% | 5% | 2%[46.1 µM] | nt
COc1ccc(OCCN2C(=O)NC3(CCc4ccccc4C3)C2=O)cc1 (centres undefined) | ? | -8% | -11% | -6% | -12% | -15% | 8% | -2.4%
COCCNC(=S)N/N=C(\C)c1ccccc1O | -6% | -13% | 9% | -2% | -20% | 28% | ? | -4.8%
O=C(Cn1ccc(C(F)(F)F)n1)N=Nc1c(O)[nH]c2ccccc12 | -13% | nt | 1% | -3% | 13% | -20% | -14%[46.1 µM] | nt
CCN(CC)CCOC(=O)c1cccc(Br)c1 | 10% | -1% | 0% | -8% | -3% | 2% | 12% | 4.6%
O=C(N/N=C/c1ccc([N+](=O)[O-])cc1)c1cc(C2CC2)[nH]n1 | nt | nt | 1% | 1% | -1% | -16% | nt | nt
Cc1ccc(Oc2ncc(CN3CCOCC3)s2)cc1 | -11% | 8% | -10% | -23% | 5% | 0% | ? | 3.2%
Cc1ccc2c(c1)N(CC(=O)NCCCN1CCN(C)CC1)C(=O)CO2 | ? | nt | -3% | 1% | 7% | -3% | -9%[46.1 µM] | nt
CCN1C(=O)/C(=C\c2nc3ccccc3c(=O)n2CC)c2ccccc21 | -24% | nt | 0% | nt | 2% | 25µM* | ? | nt
O=C(Cn1cc(C(=O)c2ccco2)c2ccccc21)Nc1ccccc1F | 0% | nt | -1% | -2% | 7% | -24% | -3%[46.1 µM] | nt
O=c1c2ccccc2n2c(-c3ccccc3O)nnc2n1Cc1ccc(F)cc1 | 6%[46.1 µM] | -4% | nt | nt | nt | -8% | 8%[46.1 µM] | -3.3%

The results go on.
SMILES | LASV entry inh | Cruzain inh noDet | SARS PLpro yeast | NS1 inh | RE007 growth inh | StopGo reporter | Marburg entry inh | Cruzain inh Det
CC(NC(=O)COC(=O)CNC(=O)c1ccc(-c2ccccc2)cc1)c1ccccc1 (centres undefined) | 17% | nt | 3% | nt | -3% | -10% | 4%[46.1 µM] | nt
CC1(C)C2CCC1(CS(=O)(=O)NC(CC(=O)O)c1cccc(Br)c1)C(=O)C2 (centres undefined) | -12% | nt | -2% | 10% | 16% | 19% | 12% | nt
Cc1nnc(Nc2ccc(Cl)cc2)s1 | -15% | nt | -15% | -96% | -2% | 19% | 23% | nt
Cc1cc(C)nc(/N=C(\N)Nc2ccc(C(C)C)cc2)n1 | ? | nt | -2% | -4% | -25% | 14µM* | 10µM* | nt
O=C(NN=C1CCC(c2ccccc2)CC1)c1cc2c(s1)CCCC2 (centres undefined) | -1% | -1% | -2% | 4% | -10% | -6% | 18% | 2.7%
CN(C)/C=C(/C(=O)c1ccc(Cl)cc1Cl)S(=O)(=O)c1ccc(Cl)cc1 | 1% | -2% | 4% | -7% | -13%[3.69 µM] | -13% | -2% | -3.3%
COc1ccc(Cn2cc(C(=O)c3ccc(C)cc3)c(=O)c3cc(OC)c(OC)cc32)cc1 | -21%[46.1 µM] | ? | nt | nt | nt | -20% | ? | -11%
O=C(Cn1c(=O)n(-c2cccc(C(F)(F)F)c2)c(=O)c2sccc21)NCC1CCCO1 (centres undefined) | -47% | nt | 0% | 12% | 3% | 2% | ? | nt
COc1ccccc1CNC(=O)[C@@H]1CCCN1C(=O)C1CCN(S(=O)(=O)c2ccc(C)cc2)CC1 | -23% | ? | -1% | -3% | 12% | -15% | 2%&-6% | 4.7%
NS(=O)(=O)c1ccc(Cc2ncc(C(F)(F)F)cc2Cl)s1 | -6% | 1% | 5% | 0% | 21% | -24% | ? | -1.4%
COc1ccc(NC(=O)CN(C)S(=O)(=O)c2ccc3nc(C)sc3c2)cc1Cl | -2%[46.1 µM] | -10% | nt | nt | nt | ? | -2%[46.1 µM] | -7.1%
c1ccc(COc2ccc(OCCOCCn3cncn3)cc2)cc1 | -5% | -3% | -6% | -15% | 1% | -18% | ? | 1.6%
COC(=O)c1ccc(NC(=O)c2cn(-c3cccc(C)n3)cn2)cc1 | -3% | -3% | -4% | -1% | 2% | 7% | 46% | 4.7%
COc1ccc(N2CCN(C(C)C(=O)Nc3nnc(C)s3)CC2)cc1 (centres undefined) | 10% | nt | 0% | 2% | -8% | -9% | -1%[46.1 µM] | nt
C=CCn1c(Cc2cccs2)nnc1SCC(=O)Nc1cc(OC)cc(OC)c1 | ? | -1% | 8% | -8% | 0% | 0% | 11% | -1.6%
O=C(Nc1ccc(S(=O)(=O)N2CCOCC2)cc1)C1CCCCC1 | -9% | -6% | 1% | -6% | -13% | 12% | 11% | -4.1%
CCCCN(CC)C(=O)c1ccccc1Oc1ccccc1 | 1% | 5% | -6% | -10% | 4% | 0% | 6% | -1.7%
Cc1ccccc1C(=O)OC1OC(=O)C(Cl)=C1Nc1ccccc1 (centres undefined) | ? | nt | -17% | 3% | 5% | ? | -16%[46.1 µM] | nt
Nc1c(-c2nc(-c3ccccc3)no2)nnn1CC(=O)Nc1cccc(F)c1 | 19%[46.1 µM] | 32µM* | nt | nt | nt | 4% | nt | -26%
COc1ccc(N2CCN(C(=O)C(CC(C)C)NS(=O)(=O)c3ccc4nc(C)sc4c3)CC2)cc1 (centres undefined) | -13%[46.1 µM] | 21% | nt | nt | nt | 5% | -4%[46.1 µM] | -16%
Cc1ccc(C)c(OCc2cc(C(=O)N3CCN(c4ccccc4)CC3)no2)c1 | nt | nt | -3% | -8% | 1% | 30%[activator] | nt | nt
COc1ccc(CNC(=O)c2cccnc2SC)cc1OC | ? | nt | -3% | nt | -19% | 1% | 8%[46.1 µM] | nt
COc1ccc(-c2nc3c(c(SCC(=O)N(C)c4ccccc4)n2)Cc2cc(C)ccc2O3)cc1 | -12%[46.1 µM] | -3% | nt | nt | nt | 8% | 6%[46.1 µM] | -0.7%
COc1ccccc1CNC(=O)Cn1ccc2cc(S(=O)(=O)N3CCCC3)ccc21 | nt | nt | 3% | 0% | -4% | -10% | nt | nt
O=C(NC1=NCCS1)c1sc2cc(F)ccc2c1Cl | ? | ? | -16% | -1% | -27% | 25% | ? | -13%

More entries follow:
SMILES | LASV entry inh | Cruzain inh noDet | SARS PLpro yeast | NS1 inh | RE007 growth inh | StopGo reporter | Marburg entry inh | Cruzain inh Det
Cn1c(NC(=O)/C=C/c2ccccc2)cc(=O)n(C)c1=O | ? | 12% | 5% | -10% | 4% | 31%[activator] | 8% | -7.7%
COC(=O)[C@H](C)NC(=O)Nc1ccc(S(N)(=O)=O)cc1 | 6% | -6% | -4% | 6% | 0% | nt | -3% | 2.0%
COc1ccc(OCC(=O)N2CCN(C(=O)c3ccco3)CC2)cc1 | -2% | 13% | 4% | ? | 0% | 10% | 5%[46.1 µM] | 11%
CSc1nc(N2CCOCC2)c2c(c1C#N)CC(C)(C)OC2 | -18% | 5% | 10% | -3% | 23% | -17% | -16% | -7.6%
CC(C)C1COC(c2cccc3ccccc23)=N1 (centres undefined) | ? | -4% | -23% | 23% | -9% | 12% | ? | -2.2%
CNC(=O)c1ccc2c(c1)N(Cc1cc(C)ccc1C)C(=O)c1ccccc1S2 | -28%[46.1 µM] | ? | nt | nt | nt | -17% | nt | -7.2%
COc1ccc(/C=C2/Sc3ccc(C(=O)NCCCN4CCOCC4)cc3NC2=O)cc1OC | -9% | nt | ? | 6% | -8% | -27% | ? | nt
Cc1ccc(-c2nc(-c3ccccn3)no2)cc1[N+](=O)[O-] | nt | nt | 1% | -2% | ? | -29% | nt | nt
COc1ccc(-c2nc3c4ccccc4ccn3c2CN2CCOCC2)cc1OC | nt | nt | -4% | 0% | -22% | 23% | nt | nt
COCCn1c(N)c(N(Cc2ccccc2)C(=O)c2cc3ccccc3o2)c(=O)[nH]c1=O | 1% | nt | -1% | nt | 1% | 9% | 4% | nt
CN1CCN(S(=O)(=O)c2ccc(NC(=O)c3ccco3)cc2)CC1 | 17% | -1% | nt | -8% | -2% | 22% | -3% | 2.9%

Compounds as they come; 4.5% or so of the library scored in one or more.
